Compound activity from PubChem BioAssay.
VDR inhibitor: Inhibitors of the vitamin D receptor (VDR): qHTS; 400,000 tested, 0.93% active; AID 504847, 2011; VDR-SRC2-3 peptide fluorescence polarization, 2 h; Potency, µM, for the others: max response, negative = inhibition, actives largely listed as inhibitors; active means well fitted inhibition curve with a large enough effect; inconclusive means small, poorly fitted or top-dose-only effect, or another doubt; inactive means no such curve, though single readings can be large or run the other way; further: series mostly up to about 120 µM
Target sequence (P11473 whole entry, looked up): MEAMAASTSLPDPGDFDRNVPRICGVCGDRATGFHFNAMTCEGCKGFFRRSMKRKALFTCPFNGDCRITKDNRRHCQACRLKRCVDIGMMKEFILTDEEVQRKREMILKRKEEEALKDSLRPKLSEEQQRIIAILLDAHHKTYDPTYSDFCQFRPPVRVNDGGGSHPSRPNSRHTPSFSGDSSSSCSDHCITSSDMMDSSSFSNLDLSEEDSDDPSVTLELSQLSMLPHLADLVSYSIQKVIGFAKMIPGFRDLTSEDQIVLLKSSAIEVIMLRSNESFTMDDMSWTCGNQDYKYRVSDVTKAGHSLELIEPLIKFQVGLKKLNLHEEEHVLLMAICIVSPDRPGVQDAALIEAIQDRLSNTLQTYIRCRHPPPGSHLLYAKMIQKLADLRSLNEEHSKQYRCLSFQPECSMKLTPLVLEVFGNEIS
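VDR–SRC2-3 interaction, FP format. Cmpds 23 nl via pintool, brief spin, 2 h ambient incubation.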
Active calls of the source: *; ? = inconclusive; & = joins results of further samples. On the % scale 0 is the no-effect control and ±100 the full control effect; potency means the concentration at half of the fitted maximal effect. Some of the compounds tested; rates above refer to the full screens.

SMILES | VDR inhibitor
Cn1c(NC(=O)c2cccc(Cn3cc(Cl)cn3)c2)nc2ccccc21 | 10%
CC1CCc2c(sc3nc(C(C)(C)C)nc(N4CCN(C(=O)CCl)CC4)c23)C1 (stereo not drawn) | ?
Cc1ccc(C(=O)N2NC(c3ccc(F)cc3)C3C(=O)N(c4ccc(C)c(C)c4)C(=O)C32)cc1 (stereo not drawn) | 2%
COC(=O)C(Cc1csc2ccc(Cl)cc12)NC(=O)c1ccc(Cl)cc1 (stereo not drawn) | 4%
O=C(Nc1cccc(C(F)(F)F)c1)C1CCCN(S(=O)(=O)c2cccc3nsnc23)C1 (stereo not drawn) | -13%
Cn1cnnc1SC/C(O)=C(\C#N)c1nc2ccccc2[nH]1 | 4%
CC(C(=O)Nc1ccccc1-c1ccccc1)N1CCCCC1 (stereo not drawn) | 16%
CN(C)/N=C/c1ccc(OS(=O)(=O)c2ccccc2)cc1 | -19%
Cn1c(C(=O)Nc2cccc(Cl)c2)cc2c(=O)n(C)c3ccccc3c21 | -6%
Cc1cccc(NC(=O)Nc2ccc(Cl)c(Cl)c2)n1 | 10%
COc1ccc(-n2cc(CNCCCn3ccnc3)c(-c3cccc(F)c3)n2)cc1 | 24%
Cc1nc(NC(CC(C)C)C(=O)O)c2nc(C)oc2n1 (stereo not drawn) | -20%
CC(=O)c1c(C)c[nH]c1C | -18%
O=C(O)c1ccc(COc2ccccc2Cl)cc1 | -5%
CCc1c(C(=O)N/N=C/c2sccc2C)nnn1-c1nonc1N | -12%
O=C(N[C@@H](CO)C(=O)NCc1ccccc1)c1ccc(C(F)(F)F)cc1 | 0%
Cc1cc(/C=C2\SC(N)=NC2=O)c(C)n1-c1ccccc1 | -1%
CN1CCN(Cc2c(C(=O)N/N=C/c3cccc(Br)c3)nnn2-c2nonc2N)CC1 | 8%
CCN1CCN(CC(=O)c2cc(OC)c(OC)c(OC)c2)CC1 | -11%
O=C(/C=C/Nc1ccccc1)c1ccc(Cl)cc1Cl | -5%
CNc1oc(-c2ccco2)nc1C#N | -1%
Cc1nn(CC(=O)NCc2ccco2)c(=O)c2cc3ccccc3n12 | 18%
CSCCC(NC(=O)C12CC3CC(CC(C3)C1)C2)C(=O)OCC(=O)c1ccccc1 (stereo not drawn) | -4%
C=CCNC(=O)c1onc(CSc2ccc(OC)cc2)c1C(=O)O | -10%
NC(C(=O)O)c1ccc(P(=O)(O)O)cc1 (stereo not drawn) | 18%
CC(=O)Nc1c(C)ccc2nsnc12 | -4%
COc1cc2nc(SCC(=O)Nc3ccccc3F)n3nc(-c4ccccc4)nc3c2cc1OC | -14%
COc1ccccc1C(=O)NCCC(=O)Nc1cccnc1 | -11%
COC(=O)Cn1nc(-c2ccccc2)c2ccccc2c1=O | -11%
Cc1ccc2[nH]c3nc(N/N=C/c4cccc(O)c4)nnc3c2c1 | -2%

Ordered by molecular weight (smallest number first): 15 of the compounds above
SMILES | VDR inhibitor
CC(=O)c1c(C)c[nH]c1C | -18%
CC(=O)Nc1c(C)ccc2nsnc12 | -4%
NC(C(=O)O)c1ccc(P(=O)(O)O)cc1 (stereo not drawn) | 18%
O=C(O)c1ccc(COc2ccccc2Cl)cc1 | -5%
O=C(/C=C/Nc1ccccc1)c1ccc(Cl)cc1Cl | -5%
COC(=O)Cn1nc(-c2ccccc2)c2ccccc2c1=O | -11%
Cc1cc(/C=C2\SC(N)=NC2=O)c(C)n1-c1ccccc1 | -1%
COc1ccccc1C(=O)NCCC(=O)Nc1cccnc1 | -11%
Cc1ccc2[nH]c3nc(N/N=C/c4cccc(O)c4)nnc3c2c1 | -2%
CCN1CCN(CC(=O)c2cc(OC)c(OC)c(OC)c2)CC1 | -11%
CCc1c(C(=O)N/N=C/c2sccc2C)nnn1-c1nonc1N | -12%
C=CCNC(=O)c1onc(CSc2ccc(OC)cc2)c1C(=O)O | -10%
CSCCC(NC(=O)C12CC3CC(CC(C3)C1)C2)C(=O)OCC(=O)c1ccccc1 (stereo not drawn) | -4%
CN1CCN(Cc2c(C(=O)N/N=C/c3cccc(Br)c3)nnn2-c2nonc2N)CC1 | 8%
COc1cc2nc(SCC(=O)Nc3ccccc3F)n3nc(-c4ccccc4)nc3c2cc1OC | -14%

Later entries.
SMILES | VDR inhibitor
CCOC(=O)C1CCN(Cc2ccccc2C(F)(F)F)CC1 | 21%
Cc1cc2occ(CC(=O)O)c2cc1C | 2%
CCOC(CNC(=O)c1nnc(Cc2cc(OC)c(OC)c(OC)c2)o1)OCC | 1%
O=C(c1ccc(F)cc1)N1CCC(C(=O)N2CCN(S(=O)(=O)c3cccc([N+](=O)[O-])c3)CC2)CC1 | -7%
CCSC1=NC(C)(C)C=C(/C=C/c2ccc(Cl)cc2Cl)N1 | ?
CCOc1cc(CNc2ccc3cn[nH]c3c2)ccc1OC | -8%
Cc1cccc(-c2nc(S(=O)(=O)c3ccccc3)c(N3CCOCC3)o2)c1 | 7%
Cc1cc(C)c(S(=O)(=O)c2ccccc2Cl)c(=O)[nH]1 | -4%
CCN(CCCNC(=O)CCn1c(=O)[nH]c2ccsc2c1=O)c1ccccc1 | -8%
CCCCOc1ccc(N(CC(=O)NCc2ccco2)C(=O)CCC(=O)Nc2nccs2)cc1 | 1%
Cc1ccc(S(=O)(=O)N(C)c2ccc(C(=O)NCc3cccnc3)cc2)cc1 | 19%
COc1ccc(CNC(=O)c2cc(C)nc3c2c(C)nn3-c2cccc(Cl)c2C)cc1 | -2%
Cc1cccc(NC(=O)c2cccc(S(=O)(=O)N(C)c3ccccc3)c2)n1 | 23%
CSc1nc(N)nc(SCC(=O)c2ccc(C)cc2)c1C#N | 0%
Nc1nc(NCCO)nc(N2CCCCCC2)c1[N+](=O)[O-] | -18%
Cc1cc(N2CCN(C)CC2)nc2ccc(NC(=S)NCCCN3CCN(C)CC3)cc12 | 2%
NC(=O)CC(NC(=O)Cc1ccc(Br)cc1)c1ccc(NCCN2CCOCC2)c([N+](=O)[O-])c1 (stereo not drawn) | 7%
C/C(=N\Nc1ccc(F)cc1)c1ccncc1 | -9%
CSc1ccccc1NC(=O)COC(=O)CSc1ccc(C)cc1 | -19%
CC(C)Cn1c(O)c(N=NC(=O)c2cccc(S(=O)(=O)N3CCCCC3)c2)c2ccccc21 | -4%
CCOc1ccccc1CN1CCN(Cc2cc3ccccc3[nH]2)CC1CCO (stereo not drawn) | -2%
N#CC1=C(N)N(c2ccccc2)C(c2ccccc2)C1(C#N)C#N (stereo not drawn) | -3%
CCCNC(=O)NC1CCCCCCC1 | -13%
CCOC(=O)c1cnn(-c2ccccn2)c1N | 3%
Cc1ccc2c(c1)c1c(c(=O)n(-c3ccccc3)c(=O)n1CC(=O)c1ccc(F)cc1)n2C | -11%
Cc1ccc(C(=O)NNC(=O)C2CCN(S(=O)(=O)c3ccc(Cl)cc3)CC2)cc1 | -4%
COC(=O)c1ccc(CSc2nnc(CNC(=O)c3cccs3)o2)o1 | 5%
CC(=O)c1ccc(NC(=S)N2CCC(O)CC2)cc1 | -2%
Cc1ccc(C)c(NNC(=O)C(=O)NNc2cc(C)ccc2C)c1 | 4%
Oc1cccc(/C=N\Nc2nncc(-c3ccccc3)n2)c1 | ?
Cc1ccc2c(c1)N(CCC(=O)NC1CCCCC1)C(=O)CO2 | -4%
CCOC(=O)c1cccc(COC(=O)c2cccc(-c3nnc(-c4ccccc4)o3)c2)c1 | 2%
COc1ccc(OC)c(C2=NS(=O)(=O)N(C)C(C(=O)Nc3ccc(C(C)=O)cc3)=C2)c1 | -19%&-1%
CC(/C=C/c1ccccc1)=N\NC(=O)CNC(=O)c1ccccc1Cl | -16%
CC1(C)CC(=O)C=C(Nc2ccccc2NC(=O)c2cnccn2)C1 | -3%
CN1CCN(CCCNC(=O)Cn2nc(-c3ccccc3)ccc2=O)CC1 | 5%
C=C(C)Cn1c(SCC#N)nc2ccccc2c1=O | -1%
COc1ccc(CCc2nnc(CCC(=O)NCC3CCCO3)o2)cc1 (stereo not drawn) | 1%
CC(C)C[C@@H](CN(N=O)[C@@H](Cc1ccccc1)CN(C)N=O)N(CCc1ccccc1)N=O | 7%
COc1ccc(C2=NS(=O)(=O)N(C)C(C(=O)N3CCCCC3)=C2)cc1 | -9%
CC1(C)C(=O)OC(C(=O)c2ccccc2)C(C)(C)C1=O (stereo not drawn) | 1%
COc1cc2cc(C)c(SCC(=O)N3CCN(C(=O)c4ccco4)CC3)nc2cc1OC | -4%
CSc1nccn1C(=O)c1ccccc1[N+](=O)[O-] | ?
C/C(=N\NC(=O)C1CC1(c1ccccc1)c1ccccc1)c1cccc([N+](=O)[O-])c1 (stereo not drawn) | 14%
CCN1C(=O)CS/C1=N\S(=O)(=O)c1ccc(C)cc1 | 6%
CC(C)C(=O)NCCn1ccc2ccccc21 | 22%
C=CCn1c(N)c(C(=O)OCCC)c2nc3ccccc3nc21 | -10%
O=C(COC(=O)c1ccc2c(c1)OCO2)NCc1ccc2c(c1)OCO2 | 0%
COCCNC(=O)CSc1nnc2c(Cl)cc(Cl)cn12 | -9%
Cc1cc(/C=C2\NC(=O)NC2=O)c(C)n1-c1ccc(N2CCOCC2)cc1 | 8%

Other records.
SMILES | VDR inhibitor
COc1ccc(CNC(=O)CC(c2ccc(OC)cc2)N2Cc3ccccc3C2=O)cc1 (stereo not drawn) | 19%
O=C(Nc1ccc(Cl)c([N+](=O)[O-])c1)c1cnccn1 | -22%
Cc1ccc(S(=O)(=O)/N=C(/Nc2cccc3ccccc23)c2ccc(F)cc2)cc1 | 16%
O=Cc1c(N2CCCCC2)nc2ccccn2c1=O | -6%
CCc1ccc(S(=O)(=O)Nc2cc(SCC(=O)O)c(O)c3ccccc23)cc1 | ?
C[C@@H]1/C(=N/O)CC2C[C@@H]1C2(C)C | -17%
COc1cc(OC)c(C(=O)NCCCn2ccnc2)cc1OC | -11%
COCCNC(=O)CSc1nc2scc(-c3ccccc3)c2c(=O)[nH]1 | -25%
CCc1nnc(SCC(=O)Nc2ccc(F)cc2F)c2cc3sc(C)cc3n12 | 15%
COc1ccc(NCc2cc3cc4c(cc3n(CC(=O)Nc3cccc(F)c3)c2=O)OCO4)cc1 | 5%
CN(Cc1cc(=O)n2ccsc2n1)c1ccccc1 | -12%
CCc1nnc(NS(=O)(=O)c2ccc(NC(=O)c3ccccc3OC)cc2)s1 | -1%
CCn1nc(C(=O)NCCc2ccc(S(N)(=O)=O)cc2)c2ccccc2c1=O | 13%
N#C/C(=C\c1ccccc1O)C(=O)Nc1ccccn1 | 0%
COc1ccc(N2CCN(C(=O)c3cc(-c4ccc(F)cc4)[nH]c3C)CC2)cc1 | -13%
Nc1ccccc1-c1nc2ccccc2[nH]1 | -3%
O=C(NC(=S)Nc1ccccc1Br)c1ccc2c(c1)OCO2 | -15%
CC(C)CCOc1ccccc1Cn1c(=O)sc2ccccc21 | 12%
O=C(Nc1ccccc1O)c1cc(S(=O)(=O)N2CCCC2)ccc1Cl | -15%
COc1ccc(Cn2c(CO)cnc2SCc2ccc(C)cc2)cc1 | 4%
N#Cc1cccnc1N1CCN(C(=O)c2cccc3c2C(=O)c2ccc(Cl)cc2S3(=O)=O)CC1 | -5%
Cc1ccc(Cl)cc1N1CCN(C(=O)C2CCN(S(=O)(=O)c3c(C)nn(C)c3C)CC2)CC1 | -6%
CC(C)C[C@H](NC(=O)c1[nH]cnc1C(=O)N[C@@H](C)C(=O)OC(C)(C)C)C(=O)OCc1ccccc1 | -12%
CCNC(=S)NCCN1CCCCC1 | -2%
CCOc1cc(C(=S)N2CCOCC2)ccc1OS(=O)(=O)c1ccccc1 | -5%
O=C(Nc1ccn(-c2ccccc2)n1)c1ccc(S(=O)(=O)N2CCCCCC2)cc1 | -1%
O=C(NCCCNC(=O)c1cc(Cl)ccc1Cl)c1cnccn1 | 14%
Cc1cc2nccc(-c3ccc(Cl)c([N+](=O)[O-])c3)n2n1 | -15%
COc1cccc(CN2C(=O)[C@H]3Cc4c([nH]c5ccccc45)C(C)(C)N3C2=O)c1 | -19%
Cc1cccc(NC(=O)CCNC(=O)c2ccc(Br)cc2)c1C | 14%
CNC(=O)NC(=S)NC(=O)c1cccc(Cl)c1 | 4%
COc1cc2c(C(=O)N3CCN(C4CCCCC4)CC3)cn(CC(C)C)c(=O)c2cc1OC | -12%
Cc1cc(C)nc(SCCC(=O)N(C)C)n1 | -7%
Cc1n[nH]c(C)c1CCCCOc1ccccc1[N+](=O)[O-] | -21%
O=C(CNC(=O)c1ccco1)NCC(=O)OC(C(=O)c1ccccc1)c1ccc(Cl)cc1 (stereo not drawn) | -5%
O=C(O)C1C2C=CC(C2)C1C(=O)Nc1cccc(F)c1 (stereo not drawn) | 6%
COc1ccc(C(=O)Cn2c(Br)nc3c2c(=O)n(C)c(=O)n3C)cc1OC | -5%
Nc1nsnc1C(=O)NCCO | 4%
COc1ccc(/C=C2/SC(=S)N(NS(=O)(=O)c3ccc(C)cc3)C2=O)cc1 | -8%
COc1ccccc1OCCn1c(-c2ccc(Cl)cc2)nc2ccccc2c1=O | -11%
O=C(COc1ccccc1)NCC(c1ccco1)N1CCN(c2ccccc2)CC1 (stereo not drawn) | -1%
O=C(COC(=O)C1CCN(S(=O)(=O)c2ccccc2C(F)(F)F)CC1)NCc1ccc(F)cc1 | -17%
CCOC(=O)/C=C(\C)Sc1cc(=O)oc2ccccc12 | 9%
O=[N+]([O-])c1ccc(O)c(C=Nc2ccc3c(c2)OCCO3)c1 | -24%
Cc1ccc(OCC(=O)Nc2cccc(S(=O)(=O)N3CCCCCC3)c2)c([N+](=O)[O-])n1 | -6%
C=CCNC(=O)c1sc(SC)cc1-c1ccc(Cl)cc1 | -6%
CCc1ccccc1N(C)C(=O)C1CCCN(c2ncnc3onc(-c4ccc(F)cc4)c23)C1 (stereo not drawn) | 8%
C=C(C)C(=O)OC1(C(F)(F)F)Oc2cc(C)ccc2NC1=O (stereo not drawn) | -24%
COc1ccc(NS(=O)(=O)c2ccc3c(c2)CCN3C(=O)CCC(=O)O)cc1Cl | -6%

A run of entries taken from the entries so far, for reference:
SMILES | VDR inhibitor
O=C(COc1ccccc1)NCC(c1ccco1)N1CCN(c2ccccc2)CC1 (stereo not drawn) | -1%
O=C(COC(=O)C1CCN(S(=O)(=O)c2ccccc2C(F)(F)F)CC1)NCc1ccc(F)cc1 | -17%
